VACV mCherry inh: inhibitors of vaccinia virus infection (mCherry reporter signal). Vaccinia virus mCherry reporter infection, fluorescence; about a quarter of the inactives have no number. actives 0.63% (n = 310,000). Potency, µM (doses to about 36.5 µM), for inactives: at the top dose activity change, negative = inhibition, hits mostly inhibitors; active = well fitted inhibition curve with a large enough effect; inconclusive = small, poorly fitted or top-dose-only effect; inactive = no such curve, though single readings can be large or run the other way; tested in A549 cells; also: nearly all actives have a fitted effect of over 35% in size; inactives centre near -10
Vaccinia Venus: vaccinia inhibition (Venus reporter); Vaccinia virus Venus reporter expression, fluorescence; actives 0.46% (n = 330,000); AID 720580; Potency, µM (series often up to 36.5 µM), for the others: at the top dose activity change, negative = inhibition, actives largely listed as inhibitors; active means well fitted inhibition curve with a large enough effect; inconclusive means small, poorly fitted or top-dose-only effect; inactive means no such curve, though single readings can be large or run the other way; tested in A549 cells; also: nearly all actives have a fitted effect of over 30% in size; inactives centre near -10
Numbers without * were called inactive; i = inactive; ? = inconclusive; nt = no result given; & = joins results of further samples; [ ] = remark or other dose. % is scaled to controls: 0 for no effect and ±100 for the full control effect; potency is read from the fitted curve at half-maximal effect. Outcome played no part in choosing rows; 0.82% or so of the library scored in one or more.

A first look (3 entries):
SMILES	VACV mCherry inh	Vaccinia Venus
Cc1ccc(C)c(NC(=O)Cn2c(=O)n(Cc3nc(C)no3)c(=O)c3cc4c(cc32)OCO4)c1	-8%	-1%
O=C1NC(Nc2nc3ccccc3s2)(C(F)(F)F)C(=O)N1C1CCCCC1 (stereo not given)	?	10µM*
Cc1ccc(CNC(=O)c2ccc(Cn3nc(C)c(Cl)c3C)o2)cc1	nt	-24%

This part in full, repeating the preview:
SMILES	VACV mCherry inh	Vaccinia Venus
Cc1ccc(C)c(NC(=O)Cn2c(=O)n(Cc3nc(C)no3)c(=O)c3cc4c(cc32)OCO4)c1	-8%	-1%
O=C1NC(Nc2nc3ccccc3s2)(C(F)(F)F)C(=O)N1C1CCCCC1 (stereo not given)	?	10µM*
Cc1ccc(CNC(=O)c2ccc(Cn3nc(C)c(Cl)c3C)o2)cc1	nt	-24%
Cc1cc(=O)oc2cc(OCC(=O)N3C[C@H]4C[C@@H](C3)c3cccc(=O)n3C4)ccc12	6%	1%
O=C(COc1ccccc1)N=C1SC2CS(=O)(=O)CC2N1c1ccccc1F (stereo not given)	-2%	-23%
O=NN(Cc1cccnc1)Cc1cccnc1	3%	-1%
O=C1CC(=O)N(C2CCCCC2)C(=O)N1c1ccccc1S(=O)(=O)Oc1ccccc1	i	3%
Cc1cc(-c2ccccc2)nc(N/N=C/c2ccccc2)n1	?	-12%
C[C@H]1C=C(C(=O)N2CCN(Cc3ccc4c(c3)OCO4)CC2)O[C@@H](OCc2ccc(CO)cc2)C1	-18%	-14%
O=C1NC(=O)C(=CC=Cc2ccccc2)S1	-10%	-4%
COc1ccccc1N1CCN(C(=O)CCC(=O)Nc2nnc(C(C)C)s2)CC1	i	0%
CC1CCc2c(sc3ncnc(SCC(=O)Nc4ccc(C(=O)O)cc4)c23)C1 (stereo not given)	7%	6%
CCN(c1ccccc1)S(=O)(=O)c1nnc(NC(=O)COc2ccccc2F)s1	-15%	-3%
C[C@H]1CN=C(N(C)C)N1CCC1CCCCC1	i	-11%
N#Cc1cccc(CN2CCC(=O)N([C@H](CO)Cc3ccccc3)CC2)c1	-1%&-11%	-5%&-25%
CN(C)/C=C1\N=C(c2ccc3c(c2)OCO3)OC1=O	nt	-15%
Cc1ccc(NC(=O)CC2SC(=NC3CCCCC3)NC2=O)cc1 (stereo not given)	-17%	-16%
COc1ccc(NC(=O)Cn2nc(-c3ccncc3)ccc2=O)cc1Cl	-12%	-7%
COc1ccc(C(=O)C2CCCN(C(=O)c3ccnn3C)C2)c(C)c1 (stereo not given)	-12%	-23%
O=C(O)CCCCCN=C1CCc2ccccc2N1	-14%	-1%
CCCn1nc(C(=O)NNC(=O)c2ccc(OC(F)F)cc2)c2ccccc2c1=O	-8%	-10%
CC(C)N1CCC(=NNC(=O)c2ccc(Br)o2)CC1	i	-8%
O=C(Nc1c(F)cccc1F)C(c1ccccc1)c1ccccc1	-11%[7.34 µM]	-18%[7.34 µM]
CCCC(=O)Nc1ccc(C(=O)n2ccc(C)n2)cc1	-11%	18%
N#Cc1cccc(OC(=O)C2CCN(C(=O)c3ccc(F)cc3)CC2)c1	i	-4%
N#Cc1c(NC(=O)Cn2cnc3ccccc3c2=O)oc(-c2ccccc2)c1-c1ccccc1	nt	-8%
COc1cccc(-c2ccc3c(N)c(C(=O)c4ccc(Br)cc4)sc3n2)c1	-27%	-26%
CCOc1ccc(/C(O)=C2/C(=O)C(=O)N(CCOCCO)C2c2ccc(F)cc2)cc1 (stereo not given)	nt	-9%
Cc1nn(C(C)(C)C)c(N)c1-c1ccccc1	-14%	-13%
Cc1ccc(S(=O)(=O)Nc2cccc(C(=O)NCCCN3CCCC3=O)c2)cc1F	-18%	-9%
COc1cccc(CN(C)C(=O)c2cc(S(=O)(=O)N3CCN(c4ccccc4)CC3)ccc2Cl)c1	-11%	-28%
O=C(Cc1nc2ccccc2[nH]1)N1CCC(n2c(C3CCC3)nc3cccnc32)CC1	i	0%
Cc1ccc(C)c(N2CCN(S(=O)(=O)c3cc(C(=O)Nc4cc(Cl)cc(Cl)c4)ccc3F)CC2)c1	-18%	-15%
CCc1ccc(C(=O)c2cn(Cc3ccccc3)c3cc(OC)c(OC)cc3c2=O)cc1	i	-14%
CSc1ncccc1C(=O)N1CCN(S(=O)(=O)c2ccc(C)cc2)CC1	-11%	-8%
Cc1ccccc1-c1noc(-c2ccc(Cl)cc2)n1	-23%	-26%
O=S(=O)(CCc1nc2ccccc2o1)c1ccc(Cl)c(Cl)c1	nt	-10%
COc1cccc(NC(=O)CN(C)C(=O)CCCc2nc3ccccc3s2)c1	-3%	-11%
Cc1ccccc1NC(=O)CSc1nn2c(=O)c(C)nnc2s1	-11%	1%
Cc1cc(C(=O)Nc2nc3ccc(Cl)cc3s2)nn1C	i	-13%
CCOc1cccc(NC(=O)CSc2ncc(-c3ccccc3)[nH]2)c1	-2%	-20%
COc1ccc(NC(=O)c2ccc3oc(=O)c(S(=O)(=O)c4ccc(F)cc4)cc3c2)cc1OC	-14%	-14%
CC(=O)c1sc(NC(=O)c2ccc(Cn3cc(Br)cn3)o2)nc1C	nt	-14%
CCOC(=O)C1CCN(CC(=O)Nc2c(C(=O)OC)[nH]c3cccc(C)c23)CC1	nt	-11%
Cc1cc(/C=C2\C(=O)NC(=O)N(Cc3ccco3)C2=O)c(C)n1-c1ccc(O)cc1	i	1%
C=CCOc1ccc(/C=C/C(=O)OCC(=O)N2CCN(C(C)=O)CC2)cc1	i	-18%
O=S(=O)(Nc1cccc(S(=O)(=O)N2CCOCC2)c1)c1ccc2c(c1)OCCO2	-17%	-3%
CC(=O)c1ccc(N2CCN(C(=O)Cn3ncc4c3-c3ccccc3OC4)CC2)cc1	i	-7%
O=C(CSc1nc2ncccc2[nH]1)NCc1ccccc1	-3%	-13%
COC(=O)C1=C(C(=O)OC)SC2(S1)C(C(=O)OC)=C(C(=O)OC)SC1=C2c2cc(C)ccc2NC1(C)C	i	-8%
O=C(Cn1c(=O)n2nc(-c3cccc(F)c3)nc2c2ccccc21)NCc1ccc(Cl)cc1	-5%	5%
COc1cccc(NC(=O)CSc2nc(=O)n(Cc3ccncc3)c3c2CCC3)c1	-20%	-15%
CCN(CC)CCN1CNC(=S)NC1	-16%	-1%
COc1ccc(NC(=O)N2CCCC(C(=O)Nc3ccccc3OC)C2)cc1 (stereo not given)	0%	-3%
Cc1cc(C)n(-c2ccc(NC(=O)C3CCCCN3C(=O)c3sccc3C)cc2)n1 (stereo not given)	-19%	-18%
O=C(N/N=C/c1ccc(OCc2ccccc2)cc1)c1ccc(O)cc1	-7%	-14%
CS(=O)(=O)N1CCC(C(=O)Nc2cc(Cl)cc(Cl)c2)CC1	i	-6%
CCOc1cccc2sc(Cl)nc12	-7%	-20%
O=C(CSCC(=O)c1ccc([N+](=O)[O-])cc1)c1ccc([N+](=O)[O-])cc1	-5%	-12%
Cc1ccccc1NC(=S)NNC(=O)c1ccoc1C	-19%	-3%

Additional records follow:
SMILES	VACV mCherry inh	Vaccinia Venus
COc1cc(C=NNc2nc3c([nH]2)c(=O)n(C)c(=O)n3C)ccc1O	i	-1%
CCCCNC(=O)C1(C)CCCCN1C(=O)c1cccs1 (stereo not given)	-4%	12%
COc1ccc(Cc2nnc(NS(=O)(=O)c3ccc(Cl)cc3)s2)cc1OC	i	-20%
CCn1c(Cc2ccc(OC)cc2)nnc1SCC(=O)NC1CCCCC1	-16%	-19%
c1ccc(Nc2ccnc(Nc3ccccc3)n2)cc1	-36%	?
CC(C)(CO)N=C1NS(=O)(=O)c2cc([N+](=O)[O-])ccc21	i	-23%
O=C(O)CCC1(CCC(=O)O)c2ccccc2-c2ccccc21	i	-5%
CC(=O)c1cccc(NC(=O)NNC(=O)CCC(=O)Nc2ccc(C)c(C)c2)c1	-15%	-13%
Cn1nc(C(F)(F)F)c(CN2CC(C)(C)C2=O)c1N1CCOCC1	1%	1%
Cn1cc(CN2CCN(CC(C)(C)C)C(CCO)C2)c2ccccc21 (stereo not given)	-13%	-9%
CCN(CC)c1ccc(S(=O)(=O)N2CCOCC2)cc1NC(=O)COC(=O)c1ccco1	i	-6%
CC1C/C(=N\NC(=O)CCc2ccc(S(=O)(=O)N3CCOCC3)cc2)CC(C)(C)C1 (stereo not given)	-5%	-14%
O=C(O)c1cccc(S(=O)(=O)NCCc2ccccc2)c1	-1%	-11%
C=CCNc1nc(C)nc(OC)n1	-10%	-5%
O=C(Nc1ccc(Cl)cc1)C1(S(=O)(=O)c2ccccc2)CC1	-17%	-8%
CC(=O)c1c(C(C)=O)c(C)n(C2CCCCC2)c1C	nt	-17%
Cc1nc(SCn2nnc3ccccc3c2=O)nc(C)c1C	-17%	-13%
COc1ccccc1NC(=O)Cn1c(=O)n2nc(C)nc2c2ccccc21	-19%	-7%
Cc1csc(=Nc2ccccc2)n1CCO	-11%	-3%
CCN(CC(=O)Nc1c(F)cccc1F)C(=O)/C=C/c1cn(Cc2ccccc2)nc1-c1cccnc1	-7%	-4%

In another format: entries from further up
molecule: c1ccc(Nc2ccnc(Nc3ccccc3)n2)cc1
  VACV mCherry inh = -36%; Vaccinia Venus = ?

molecule: CCCCNC(=O)C1(C)CCCCN1C(=O)c1cccs1 (stereo not given)
  VACV mCherry inh = -4%; Vaccinia Venus = 12%

molecule: CC(=O)c1cccc(NC(=O)NNC(=O)CCC(=O)Nc2ccc(C)c(C)c2)c1
  VACV mCherry inh = -15%; Vaccinia Venus = -13%

molecule: CC(=O)c1c(C(C)=O)c(C)n(C2CCCCC2)c1C
  VACV mCherry inh = nt; Vaccinia Venus = -17%

The list continues:
SMILES	VACV mCherry inh	Vaccinia Venus
O=C(CSc1nnc2ccccn12)Nc1ccc2c(c1)OCO2	-6%	-1%
CC1=C(c2ccc(C)c(C)c2)S(=O)(=O)N=C1N1CCC(C(=O)Nc2ccc(Cl)cc2)CC1	-29%	-12%
O=C(NCc1ccco1)Nc1ccc([N+](=O)[O-])cc1	i	-21%
CC(C)Cn1cnc2c(c1=N)C(c1ccccc1)C1=C(CC(C)(C)CC1=O)O2 (stereo not given)	i	0%
S=c1[nH]nc(COc2ccccc2)n1/N=C/c1ccccn1	-14%	-10%
O=[N+]([O-])c1ccc(NN=Cc2cc(Br)ccc2O)nc1	?	?
O=C(N/N=C/c1cccc(Oc2ccccc2)c1)c1ccccc1Br	i	-13%
CC(=O)Nc1ccc(NC(=O)c2cc(CN3CCCC3)on2)cc1	1%	-1%
COc1ccc(CCNC(=O)CSc2nc3[nH]ncc3c(=O)n2-c2ccccc2OC)cc1OC	i	-4%
O=C(CSc1nnc(C2CC2)n1Cc1ccccc1)Nc1cccnc1Cl	-9%	-8%
O=C(c1ccc2c(c1)OCCO2)C1CCN(S(=O)(=O)c2cccc(F)c2)CC1	-15%	-11%
C[C@H](CO)N1C[C@H](C)[C@@H](CN(C)S(C)(=O)=O)Oc2ccc(NC(=O)Nc3ccc4c(c3)OCO4)cc2C1=O	-12%	-6%
CCN(CC(=O)Nc1c(F)cccc1F)C(=O)c1ccc(N2CCCC2)c([N+](=O)[O-])c1	-7%	-23%
O=S(=O)(c1cccc2c(S(=O)(=O)N3CCCC3)cccc12)N1CCCC1	nt	-6%
Cc1c(C)[n+](=O)c(-c2ccco2)c(C)n1[O-]	-10%	-15%
Cc1ccc(Cl)cc1NC(=O)COCc1cc(-c2ccco2)on1	-3%	-3%
Cc1ccccc1S(=O)(=O)N1C[C@H]2[C@H]3C(=O)N(C4CCCCC4)C(=O)[C@H]3CC(=O)[C@H]2[C@@H]1c1ccc(Cl)cc1	1%	-10%
CC1CCCCN1C(=O)c1ccc(OC2CCN(S(=O)(=O)N(C)C)CC2)cc1 (stereo not given)	-8%	-14%
CC(=O)C(=Nc1ccc(Cl)cc1Cl)NNc1cccc(Cl)c1	-6%[1.46 µM]	?
Cc1cc(NC(=O)CSc2ncc(C(=O)Nc3ccc(C)c(C)c3)c(=O)n2C)no1	i	-13%
COc1cccc(CNC(=O)C2CCCN(S(=O)(=O)N3CC(C)CC(C)C3)C2)c1 (stereo not given)	-13%[7.34 µM]	-11%[7.34 µM]
CCC(C)c1ccc(O)c(NC(=S)NC(=O)c2cccnc2)c1 (stereo not given)	-18%	-17%
O=C(COC(=O)c1ccc([N+](=O)[O-])o1)Nc1cccc(S(=O)(=O)N2CCCCC2)c1	i	-8%
Cc1cc(C)n2c(Nc3c(C)cccc3C)c(CCc3ccccc3)nc2n1	-21%	-10%
Cc1cc(NC(=O)CSc2ccc3nnc(-c4ccccn4)n3n2)no1	i	-12%
CC(=O)Nc1ccc(NC(=O)Cn2nc([N+](=O)[O-])c(Br)c2C)cc1	-8%	-3%
COc1ccccc1C(=O)Nc1nnc(S(=O)(=O)N(C)c2ccc(Cl)cc2)s1	-10%	-12%
COc1ccc(C=O)cc1CSc1ccccn1	-8%	-3%
CCN1C(=O)[C@H]2[C@@H](c3ccc(C)cc3)N[C@]3(CCCN(Cc4cccn4C)C3=O)[C@H]2C1=O	?	-25%
Cc1ccnc(NC(=O)CCC(=O)N(CC(=O)NCc2ccccc2)Cc2cccs2)c1	i	-7%
O=S(=O)(NCc1ccncc1)c1ccc(F)c(F)c1	?	-26%
Cc1cc(C)c2c(=O)[nH]c(SCc3ccccc3)nc2n1	i	-11%
C=C(C)CN(CC)C(=O)CN1C(=O)NC2(CCCc3ccccc32)C1=O (stereo not given)	i	-12%
CC(NC(=O)Nc1ncccn1)(C(F)(F)F)C(F)(F)F	0%	-2%
Cc1ccc(C(=O)N/N=C\c2cccn2C)cn1	-14%	2%
CCOC(=O)[C@]12Cc3cc(C)ccc3[C@H]1N(C(C)C)C(=O)c1ccccc12	?	?
